Compound activity as filed in PubChem BioAssay.
E coli growth – E. coli growth inhibition, primary screen, OD600; Escherichia coli growth, 23 h; active compounds read low; OD600 absorbance (concentration not given with the values); 330,000 compounds, 0.21% hits; AID 1053175, 2014;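 active = OD600 absorbance below the run mean of sample wells minus 3.6 SD, in any replicate, cut at about 0.56 in these data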;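 note: stock transfer was 300 nL into about 60 µL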
Starred values were filed as active, the others as inactive; & = joins results of further samples.

SMILES	E coli growth
CNCC1Oc2c(NC(=O)Nc3ccccc3)cccc2C(=O)N(C(C)CO)CC1C (configuration not stated)	0.67
CCCNC1C(=O)N2C(C(=O)OCCC)=C(C)CSC12 (configuration not stated)	0.7
CCOC(=O)C1C2COc3ccc(Br)cc3C2N2C(=O)CN(Cc3ccc(Cl)cc3)C(=O)[C@@]12C (some centres not stated)	0.7
CC#CCN1c2ccccc2[C@]23CC(C(=O)OC)N=C2NC(C(=O)OC)=C(C(=O)OC)C13 (some centres not stated)	0.71
COC(=O)CN1C(=O)C2C(C3CC3)N3C(=O)CN(CCO)C(=O)[C@@]3(Cc3ccccc3)C2C1=O (some centres not stated)	0.7
COc1ccc(C=NNC(=O)C(=CNc2nccc(C)n2)NC(=O)c2ccccc2)cc1	0.7
COC(=O)C1CC1C(NC(=O)C1CC1C(NC(=O)OCc1ccccc1)c1ccccc1)c1ccccc1 (configuration not stated)	0.71
COc1ccc(NC(=O)N(C)CC2Oc3c(NC(=O)Cc4ccccc4)cccc3C(=O)N(C(C)CO)CC2C)cc1 (configuration not stated)	0.7
O=[N+]([O-])c1ccc(C=NNc2cc(Cl)nc(-c3ccccc3)n2)cc1	0.71
CC1CN(C(C)CO)C(=O)c2cc(NC(=O)Nc3ccc4c(c3)OCO4)ccc2OC1CN(C)S(=O)(=O)c1cn(C)cn1 (configuration not stated)	0.65&0.69
COC(=O)[C@@]1(Cc2ccc(OC)cc2)C2c3cc(C(=O)N4CCCC4)n(CCn4cc([N+](=O)[O-])nc4C)c3CC2CN1C(=O)c1ccccc1 (some centres not stated)	0.74
CCOC(=O)C(=CC=C1Sc2cc(OCC)c(OCC)cc2N1CC)C(C)=O	0.71
COc1ccc(C)cc1C1=CC(=O)CC(c2ccc(F)cc2)C1 (configuration not stated)	0.71
CCCCCCC=Cc1ccc(OC)c(C2C3C=CCC(C)C3C(=O)N2Cc2ccccc2)c1 (configuration not stated)	0.68
CC(=O)n1cc(C2C=C(C(=O)N3CCOCC3)OC(OCc3ccc(CO)cc3)C2)c2ccccc21 (configuration not stated)	0.66&0.64
CCOC(=O)C1C2COc3ccc(Br)cc3C2N2C(=O)N(c3ccc(F)cc3)C(=O)[C@]12C (some centres not stated)	0.71&0.71
CCOC1OC(C(=O)N2CCCCCCC2)=CC(C)C1CCCO (configuration not stated)	0.59
C#CCOCCOCCOCCNc1nc(N2CCN(C(=O)C(CCCCN)n3cc(C(N)CO)nn3)CC2)nc(N2CCN(C(=O)C(C(C)CC)n3cc(C(N)CO)nn3)CC2)n1 (configuration not stated)	0.7
NC(=NOC(=O)CCCN1C(=O)c2ccccc2C1=O)c1ccccn1	0.72
CC1CN(C(C)CO)C(=O)c2cc(NS(C)(=O)=O)ccc2OC1CN(C)CC1CCCCC1 (configuration not stated)	0.61
CC(C)(C)N1C(CC(=O)O)c2cc(C(F)(F)F)ccc2S1(=O)=O (configuration not stated)	0.66
O=C(C1=CC(c2ccc(C(F)(F)F)cc2)CC(OCc2ccc(CO)cc2)O1)N1CCN(Cc2ccc3c(c2)OCO3)CC1 (configuration not stated)	0.67&0.69
CCOC(=O)C1C2COc3ccc(Cl)cc3C2N2C(=O)CN(C)C(=O)[C@@]12C (some centres not stated)	0.63
COc1ccccc1C1C(=C(O)c2ccccc2)C(=O)C(=O)N1CCO (configuration not stated)	0.62
CCN(CC)C(=O)C(=Cc1ccc2c(c1)OCO2)NC(=O)c1ccc(Br)cc1	0.73&0.68

Six entries picked at random from the list so far, as already listed:
SMILES	E coli growth
CCOC(=O)C1C2COc3ccc(Br)cc3C2N2C(=O)N(c3ccc(F)cc3)C(=O)[C@]12C (some centres not stated)	0.71&0.71
CCCCCCC=Cc1ccc(OC)c(C2C3C=CCC(C)C3C(=O)N2Cc2ccccc2)c1 (configuration not stated)	0.68
COc1ccc(NC(=O)N(C)CC2Oc3c(NC(=O)Cc4ccccc4)cccc3C(=O)N(C(C)CO)CC2C)cc1 (configuration not stated)	0.7
O=[N+]([O-])c1ccc(C=NNc2cc(Cl)nc(-c3ccccc3)n2)cc1	0.71
CC#CCN1c2ccccc2[C@]23CC(C(=O)OC)N=C2NC(C(=O)OC)=C(C(=O)OC)C13 (some centres not stated)	0.71
CC1CN(C(C)CO)C(=O)c2cc(NS(C)(=O)=O)ccc2OC1CN(C)CC1CCCCC1 (configuration not stated)	0.61

The results go on:
SMILES	E coli growth
S=C1NCC(Cc2cccc3ccccc23)N1CC1CCCCC1 (configuration not stated)	0.66
C=C1CCN(C(C(=O)NCc2ccc(OC)cc2)C(C)C)S(=O)(=O)c2ccccc21 (configuration not stated)	0.71
CC(C#Cc1c(C(C)Oc2ccccc2)nnn1Cc1ccccc1)Oc1ccccc1 (configuration not stated)	0.68
CC1CN(C(C)CO)C(=O)Cc2cc(NS(=O)(=O)c3ccc(F)cc3)ccc2OC1CN(C)Cc1ccc(C(=O)O)cc1 (configuration not stated)	0.69
O=C(NC1CC1)C1=CC(c2ccc3c(c2)OCO3)CC(OCc2ccc(CO)cc2)O1 (configuration not stated)	0.7&0.71
CCCCCC1CN(CCCC)C(=O)C1CC(=O)NCc1ccc(OC)cc1 (configuration not stated)	0.69
COCc1cccc(C2=CC(=O)CC(c3ccc(OC)cc3)C2)c1 (configuration not stated)	0.68
Nc1nc2c(ncn2C2CC(O)C(CO)O2)c(=O)[nH]1 (configuration not stated)	0.69&0.67
CC(CN=[N+]=[N-])CN1CCC(O)CCC1=O (configuration not stated)	0.7
CC1CN(C(C)CO)C(=O)Cc2cc(NC(=O)Nc3cccc4ccccc34)ccc2OC1CN(C)S(C)(=O)=O (configuration not stated)	0.67
CCN1C(=O)C2C(c3ccc(-c4ccc(OC)cc4)c(OC)c3)N[C@@](CC(C)C)(C(=O)OC)C2C1=O (some centres not stated)	0.72
C#CCOCCOCCOCCNc1nc(N2CCN(C(=O)C(Cc3cc4ccccc4[nH]3)n3cc(C(N)CC(C)C)nn3)CC2)nc(N2CCN(C(=O)C(CCC(=O)O)n3cc(C(N)C(C)CC)nn3)CC2)n1 (configuration not stated)	0.7
CCCCCC(=O)N1CC2(CC(c3cccc(NC(=O)c4ccccc4)c3)=NO2)CC1C(N)=O (configuration not stated)	0.7
COc1ccc(NC(=O)Nc2ccc3c(c2)C(=O)N(C(C)CO)CC(C)C(CN(C)C(=O)Nc2ccc(OC)cc2)O3)cc1 (configuration not stated)	0.68
C(=Cc1sc(Nc2ccccc2)n[n+]1-c1ccccc1)c1ccccc1	0.62
C[C@@]12C(=O)N(Cc3ccc(F)cc3)CC(=O)N1C1c3cc(Cl)ccc3OCC1C2c1ccccc1 (some centres not stated)	0.71
NCCCCC(C(=O)N1CCNCC1)n1cc(CCC(=O)O)nn1 (configuration not stated)	0.64
O=C(C1=CC(c2coc3ccccc3c2=O)CC(OCc2ccc(CO)cc2)O1)N1CCN(Cc2ccccc2)CC1 (configuration not stated)	0.7&0.65
C=CCN1c2ccccc2[C@]23CC(C(=O)OC)N(C(=O)OCC)C2=NC(C(=O)OC)=C(C(=O)OC)C13 (some centres not stated)	0.7
CCc1nnc(NS(=O)(=O)c2ccc(NC=CC(=O)c3ccc(C)cc3)cc2)s1	0.68
CCOC(=O)C1C2COc3cc(OC)ccc3C2N2C(=O)N(c3cccc(Cl)c3)C(=O)[C@]12C (some centres not stated)	0.69
CCCC(C(=O)NCCO)=C1c2ccccc2C(=O)N1c1ccccc1	0.69
O=[N+]([O-])c1cccc(CN2C[C@@]34C=CC(CC3S2(=O)=O)O4)c1 (some centres not stated)	0.7
Cc1ccc(Cn2cc(C=CC(=O)O)c(-c3ccccc3)n2)cc1	0.68
COc1ccccc1C=CC(=O)NCC(=O)NN=Cc1ccc2c(c1)OCO2	0.73
Going on with the list.
SMILES	E coli growth
CC[C@@]12C(=O)N(c3cccc(F)c3)C(=O)N1C(c1cccc(C)c1)C1C(=O)N(Cc3ccccc3)C(=O)C12 (some centres not stated)	0.68
CCOC(=O)c1ccc(NC(=O)c2nc[nH]c2C(=O)NC(C)c2ccccc2)cc1 (configuration not stated)	0.61
CC=C(C)C(=O)NC(C)CN1C2=NCC(C(C)C)N2CC1Cc1ccc(OC)cc1 (configuration not stated)	0.69
CC(C)(C)C(=O)OCOC(=O)C1N2C(=O)C(N=CN3CCCCCC3)C2SC1(C)C (configuration not stated)	0.65
CC1CN(C(C)CO)C(=O)c2cccc(NC(=O)CCCCCC(=O)Nc3ccccc3N)c2OC1CN(C)Cc1ccncc1 (configuration not stated)	0.72
COc1cc2c(cc1NC(=S)NC(=O)C=Cc1ccc(OC)c(OC)c1)oc1ccccc12	0.74
O=C(CC1CC=CCCCCC(=O)OCC2CCCN2C1=O)NC(CO)Cc1ccccc1 (configuration not stated)	0.7
O=C(CCC1CCCCC1)NCCN1C2=NCC(Cc3ccccc3)N2CC1Cc1ccc(O)cc1 (configuration not stated)	0.67&0.69
CC[C@]12C(=O)N(C)CC(C3C(=O)N(Cc4ccccc4)C(=O)C31)N2C(=O)c1ccc(Br)cc1 (some centres not stated)	0.71
OCCC1CC(O)C(O)[C@@]2(CCCO2)O1 (some centres not stated)	0.68&0.7
CN1CCN(C(=O)C2=CC(c3ccc(Br)cc3)CC(OCc3ccc(CO)cc3)O2)CC1 (configuration not stated)	0.63
Cc1ccc(N2C(=O)C(=Cc3ccco3)SC2=S)cc1	0.73
NCCCCC1CNC(=S)N1CC1CCCCC1 (configuration not stated)	0.69
C[C@]12CCC3c4ccc(OC(=O)c5ccccc5)cc4CCC3C1CCC2O (some centres not stated)	0.72
O=C(OC1C(Oc2ccccc2COC(=O)C2(O)C=CCCC2=O)OC(CO)C(O)C1O)c1ccccc1 (configuration not stated)	0.71
CCOC1OC(C(=O)Nc2ccccc2)=CC(c2coc3ccccc3c2=O)C1CCCO (configuration not stated)	0.7&0.71
Cc1ccc(C2C3C(=O)N(C)C(=O)C3[C@]3(C)C(=O)N(Cc4ccc(-c5ccccc5)cc4)CC(=O)N23)o1 (some centres not stated)	0.7
C#CCOCCOCCOCCNc1nc(N2CCN(C(=O)CCCCCCCCCCNC(=O)C(CCCCN)n3cc(CCCC(=O)O)nn3)CC2)nc(N2CCN(C(=O)CCCCCCCCCCNC(=O)C(C(C)O)n3cc(C)nn3)CC2)n1 (configuration not stated)	0.62
CCCCN1CCC2C=CCC(C(=O)Nc3nccs3)C2C1=O (configuration not stated)	0.71
COC(=O)CN1C(=O)C2C(C3CC3)N3C(=O)CN(Cc4ccc(-c5ccccc5)cc4)C(=O)[C@@]3(Cc3ccccc3)C2C1=O (some centres not stated)	0.7
CC(OC(=O)n1ccnc1)C1O[C@@]2(C)CCCC1O2 (some centres not stated)	0.72
CC(=O)c1ccc(C2C[C@]34CN(Cc5cccc(C(F)(F)F)c5)S(=O)(=O)C3CC2O4)cc1 (some centres not stated)	0.67
C=C(C)C(=O)Nc1cccc(C2=NOC3(C2)CC(C(N)=O)N(C(=O)C(C)=CC)C3)c1 (configuration not stated)	0.67
O=C1C=C(c2ccc(F)cc2OCc2ccccc2)CC(c2ccc(Cl)cc2)C1 (configuration not stated)	0.72
C#CCNC(=O)C1=CC(c2ccc(C#C)cc2)CC(OCCCCO)O1 (configuration not stated)	0.69

Structures listed so far with a nitro group on carbon, in the order listed:
SMILES	E coli growth
O=[N+]([O-])c1ccc(C=NNc2cc(Cl)nc(-c3ccccc3)n2)cc1	0.71
COC(=O)[C@@]1(Cc2ccc(OC)cc2)C2c3cc(C(=O)N4CCCC4)n(CCn4cc([N+](=O)[O-])nc4C)c3CC2CN1C(=O)c1ccccc1 (some centres not stated)	0.74
O=[N+]([O-])c1cccc(CN2C[C@@]34C=CC(CC3S2(=O)=O)O4)c1 (some centres not stated)	0.7

(next part)
SMILES	E coli growth
CC(O)C1CCC2C3CCC4CC(O)CC[C@]4(C)C3C(=O)C[C@]12C (some centres not stated)	0.66
COc1ccc(NC(=C2CCCC2=O)C2CCCCC2)cc1	0.71
COc1ccc(C2C3C(=O)N(C(C)(C)C)C(=O)C3[C@]3(Cc4ccc(Cl)cc4)C(=O)N(c4ccc(OC)cc4)C(=O)N23)cc1 (some centres not stated)	0.72
C=C(C)C(=O)N1CC2(CC(c3cccc(NC(=O)C(C)=CC)c3)=NO2)CC1C(N)=O (configuration not stated)	0.62
CCCCN1CC(=O)N2C3c4ccccc4OCC3C(c3ccccc3)[C@]2(C)C1=O (some centres not stated)	0.68
CSCCC(NC(=O)C(=Cc1ccc(F)cc1)NC(C)=O)C(=O)O (configuration not stated)	0.68
CC(C)CC(NC(=O)c1nc[nH]c1C(=O)NCCCCCN)C(=O)OCc1ccccc1 (configuration not stated)	0.69
Cc1ccsc1C(=CCCN1CCCC(C(=O)O)C1)c1sccc1C (configuration not stated)	0.62
CC1CN=C(Nc2ccccc2)N1CCc1ccc(F)cc1 (configuration not stated)	0.67
CC=C1COC(C(=O)NCCN2CCCC2)(C(F)(F)F)C=C1C=C1CCCCC1 (configuration not stated)	0.61
O=C(C=Cc1cccc(F)c1)Nc1nccs1	0.69
C#CCOCCOCCOCCNc1nc(N2CCN(C(=O)C(CCC(=O)O)n3cc(C(N)Cc4ccc(O)cc4)nn3)CC2)nc(N2CCN(C(=O)C(CCC(=O)O)n3cc(C(N)CC(C)C)nn3)CC2)n1 (configuration not stated)	0.68
O=C1C=C(c2ccc3ncccc3c2)CC(c2ccc(F)cc2)C1 (configuration not stated)	0.64
CC1(C)Oc2ccc3ccc(=O)oc3c2C(=CNc2ccc(O)cc2)C1=O	0.73
CCC1(C)Cc2ccccc2C(=CC(=O)N2CCCCC2)N1 (configuration not stated)	0.67
Cc1cccc(CN2C(=O)C3Cc4c([nH]c5ccccc45)C(C)(C)N3C2=O)c1 (configuration not stated)	0.72&0.68
O=C1C=C(c2ccc3c(c2)OCO3)CC(c2ccc3c(c2)OCO3)C1 (configuration not stated)	0.63
COc1ccc(NC(=O)N(C)CC2Oc3ccc(NC(=O)NC4CCCCC4)cc3C(=O)N(C(C)CO)CC2C)cc1 (configuration not stated)	0.71
C#C[C@]1(O)CCC2C3CCc4cc(OC5CCCC5)ccc4C3CC[C@@]21C (some centres not stated)	0.74

A portion of the library. The share of hits here may be higher or lower than overall.
